Screening results (PubChem BioAssay)
TRPML1 agonist – activates the human TRPML1 channel; activation, % (test concentration not listed); Q9GZU1; actives 0.12% (n = 410,000); TRPML1-expressing cells, Ca2+ dye fluorescence, FDSS; host cell line not named in the record; reference of the full effect not given here; in the data active = activation above about 50%; inconclusive = about 30% to 50%; inactive = below about 30%; also: 0% is about no effect; the text of the record puts the active cut at 80%
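Kinetic FDSS Ca2+ read in Tet-induced TRPML1-DL cells (ABD Ca8 dye plus quencher, 45-90 min RT loading): baseline, then compound, then 110 s agonist window; EC80 agonist 54-4 at 4uM final added afterwards for a 110 s antagonist window.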
Six1-Eya2 blk – blocks human Six1 binding to Eya2. Q15475+O00167. AlphaScreen GST-Six1/His-Eya2 binding, biochemical; hits give low values; control for the full effect not named in the record. activity change, % (test concentration not listed). actives 0.56% (n = 360,000); in the data active = activity change below about -65%; inconclusive = about -30% to -65%; inactive = above about -30%; also: % is scaled to controls: 0 for no effect and ±100 for the full control effect; compound concentration not given in the record
Target sequence (O00167 whole entry, looked up): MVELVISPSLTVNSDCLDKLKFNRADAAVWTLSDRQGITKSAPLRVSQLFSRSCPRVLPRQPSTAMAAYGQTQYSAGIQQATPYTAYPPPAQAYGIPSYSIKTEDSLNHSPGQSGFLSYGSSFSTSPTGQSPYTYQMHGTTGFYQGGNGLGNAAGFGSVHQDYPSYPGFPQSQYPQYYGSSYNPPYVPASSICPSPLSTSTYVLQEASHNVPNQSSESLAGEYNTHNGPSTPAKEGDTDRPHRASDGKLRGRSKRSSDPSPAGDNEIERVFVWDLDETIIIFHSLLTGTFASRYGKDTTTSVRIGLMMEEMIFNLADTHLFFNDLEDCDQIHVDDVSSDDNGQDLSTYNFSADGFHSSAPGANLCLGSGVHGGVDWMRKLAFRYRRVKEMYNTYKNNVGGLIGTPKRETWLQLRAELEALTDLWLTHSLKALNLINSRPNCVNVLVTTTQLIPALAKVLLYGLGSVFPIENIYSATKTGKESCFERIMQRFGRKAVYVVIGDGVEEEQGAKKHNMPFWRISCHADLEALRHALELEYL
Target sequence (Q15475 whole entry, looked up): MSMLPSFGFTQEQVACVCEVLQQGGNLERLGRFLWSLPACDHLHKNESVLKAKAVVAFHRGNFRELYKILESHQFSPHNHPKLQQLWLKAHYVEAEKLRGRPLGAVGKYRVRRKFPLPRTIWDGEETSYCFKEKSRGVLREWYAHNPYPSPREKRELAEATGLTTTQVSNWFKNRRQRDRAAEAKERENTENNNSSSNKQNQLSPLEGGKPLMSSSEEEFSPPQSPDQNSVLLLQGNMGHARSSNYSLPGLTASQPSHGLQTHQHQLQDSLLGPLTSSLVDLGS
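Homogeneous AlphaScreen proximity assay pairing GST-Six1 with His-tagged Eya2 (added as 5X mix: 250 nM and 500 nM) in 50 mM Tris pH 8.0, 300 mM NaCl, 1 mM TCEP. Glutathione donor and nickel acceptor beads; 1 h, 37 °C, dark.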
D2 PAM – positive allosteric modulators of human D2 dopamine receptor; potentiation, % (concentration not given with the values); P14416; AID 624464; DiscoveRx D2 beta-arrestin cells, luminescence, 90 min; 100% = 57 uM dopamine signal; actives 0.23% (n = 360,000); active = potentiation of 50% or more; inconclusive = 30% to 50%; inactive = 30% or less;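 also: compound concentration not given in the record; tested on top of an EC20 dose of dopamine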
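PathHunter D2 cells, attached overnight at 37 deg C, received compound in DMSO plus dopamine at EC20 (50 nM final) for 90 min at 37 deg C. Beta-arrestin recruitment was read as luminescence after 1 h with detection reagent at ambient temperature.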
CtBP-E1A inh – CtBP/E1A binding inhibition. AlphaScreen GST-E1A/His-CtBP binding, 1536-well; hits give low values; control for the full effect not named in the record. activity change, % (test concentration not listed). actives 0.49% (n = 340,000). AID 651724; in the data active means activity change below about -65%; inconclusive means about -30% to -65%; inactive means above about -30%; also: % is scaled to controls: 0 for no effect and ±100 for the full control effect; compound concentration not given in the record
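GST-E1A and His-tagged CtBP (125 nM each as 5X stock) were preincubated with pin-transferred compound for 2 h at 37 °C in the dark, then glutathione donor and nickel acceptor beads were added for 1 h before AlphaScreen reading.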
PINK1 expr mod – changes PINK1 expression; PINK1 immunofluorescence, high-content cytometry, 24 h; Potency, µM (titrated, usually from 76.6 µM), for inactives: top-dose activation (PINK1 increase), hits mostly activators; actives 0.2% (n = 410,000); AID 624263; active = well fitted activation curve with a large enough effect; inconclusive = small, poorly fitted or top-dose-only effect; inactive = flat fitted curve, though single readings scatter; cell line not stated here;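 also: potency is read from the fitted curve at half-maximal effect; % of control where 0% means no effect; nearly all actives have a fitted effect of over 65% in size; a mitochondrial uncoupler was the plate control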
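Measures PINK1 amount and localization on or inside mitochondria by immunofluorescence. Stable cells get compounds at 5 concentrations for 24 hours before fixation and staining; CCCP controls included.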
D2 ag – activates the human D2 dopamine receptor; DiscoveRx PathHunter D2 beta-arrestin, luminescence, 90 min; 100% = 57 uM dopamine signal; activation, % (concentration not given with the values); actives 0.084% (n = 360,000); AID 624465; in the data active = activation above about 40%; inconclusive = about 15% to 40%; inactive = below about 15%; also: compound concentration not given in the record; the text of the record calls up to 30% inactive
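DiscoveRx PathHunter D2 beta-arrestin cells (2,100/well) attached overnight, then compound-stimulated 90 min at 37 C in HBSS/10 mM HEPES/0.1% Tween-20 buffer; beta-galactosidase complementation read by luminescence after 1 h at ambient temperature. Dopamine 57 uM final (EC100) as control.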
The depositor's hits bear a star; u = inconclusive; x = not tested or not shown; & = joins results of further samples; [ ] = another dose, or the depositor's remark.

smiles	TRPML1 agonist	Six1-Eya2 blk	D2 PAM	CtBP-E1A inh	PINK1 expr mod	D2 ag
CCNC(=O)N1CCC(c2nc3ccccc3s2)CC1	-0.2	3	3	0	-0.2%	-4.4
Cc1ccc2nc(N3CC(=O)Nc4ccccc43)nc(-c3ccccc3)c2c1	0.4	3	-11	2	13%	-6.1
Cc1ccc(C(OCC(O)CNCc2ccc(F)cc2)c2ccccc2)cc1 (configuration not stated)	3.2	-1	-11	x	-0.6%	-2.8
S=c1[nH]cnc2sc(-c3ccccc3)cc12	-0.8	-27	-22	-2	-0.9%	-0.9
CCOc1cc2[nH]c(=O)n(CCCC(=O)NCc3ccco3)c(=O)c2cc1OCC	0.0	-1	-18	0	1.7%	-0.4
O=C(Cn1c2c(c(=O)n3ncnc13)CCC2)N/N=C/c1ccc(Cl)cc1	3.4	-4	-2	5	1.7%	-0.7
OCC[C@H]1C[C@H](O)[C@@H](O)[C@]2(Cc3ccccc3O2)O1	-0.2	0	-4	4	0.1%	-4.2
COc1cc(S(=O)(=O)N2CCOCC2)ccc1NC(=O)CN1c2cccc3cccc(c23)S1(=O)=O	0.2	7	-6	-3	-0.5%	-5.2

Next section, overlapping the part above by 2 compounds.
smiles	TRPML1 agonist	Six1-Eya2 blk	D2 PAM	CtBP-E1A inh	PINK1 expr mod	D2 ag
OCC[C@H]1C[C@H](O)[C@@H](O)[C@]2(Cc3ccccc3O2)O1	-0.2	0	-4	4	0.1%	-4.2
COc1cc(S(=O)(=O)N2CCOCC2)ccc1NC(=O)CN1c2cccc3cccc(c23)S1(=O)=O	0.2	7	-6	-3	-0.5%	-5.2
Cc1noc(C)c1NC(=O)Nc1cccc2c1O[C@@H](CN(C)C)[C@@H](C)CN([C@H](C)CO)C2=O	0.5	3	-2	9	-0.7%	-1.4
C=CCN(CC=C)Cc1c(O)ccc2c(=O)c(-c3ccccc3)coc12	-0.2	2	-2	4	0.3%	6.0
Cc1cccnc1NC(=O)CCNS(=O)(=O)c1ccc2c(c1)c(=O)n(C)c(=O)n2C	0.6	-6	-1	-5	-0.6%	-0.6
CCCn1nnnc1NCc1c(Cl)cccc1Cl	2.1	6	-8	2	-0.7%	-19
CN(c1ccc(C(=O)N2CCOCC2)cc1)S(=O)(=O)c1ccc(Cl)cc1	0.2	4	6	-2	2.4%	-1.6
COC(=O)c1nn(-c2ccccc2)c(Sc2ccc(C)cc2)c1/C=N/O	2.7	-6	-9	0	2.4%	-3.1
Cc1ccc(S(=O)(=O)N(C)c2ccc(OCC(=O)Nc3ccc(S(C)(=O)=O)cc3)cc2)cc1	1.2	4	-5	-9	-0.5%	-3.1
CC(C)Cc1c(O)nc(SCC(=O)N2CCCCCC2)[nH]c1=O	-0.1	3	5	4	1.5%	4.1
Nc1ccc(Nc2ccccc2)c(S(=O)(=O)O)c1	-0.4	-23	4	-10	0.2%	-3.2
CCCNC(=O)c1ccc(N2CCC3(CC2)CC(c2cccc(Br)c2)=NO3)c([N+](=O)[O-])c1	2.2	-20	-7	-18	0.3%	-4.2
COc1ccc2c(c1)c1nnc(SCC(=O)N3C(C)CCCC3C)nc1n2C (configuration not stated)	2.5	u	-4	u	4.7%	-0.2
COc1cccc(-c2cccc3c2NC(=O)C3(C)Cc2cccc(F)c2)c1 (configuration not stated)	-0.5	-1	-6	-6	1.8%	-3.3
CC(=O)Oc1ccc(C(=O)Nc2ccc(S(=O)(=O)N3CCOCC3)cc2)cc1	-0.1	-20	-20	-15	-1.0%	-4.6
CN(Cc1ccon1)C(=O)C1CCC(=O)N(Cc2ccc(Cl)cc2)C1 (configuration not stated)	-0.3	0	0	5	1.9%	-4.2
O=C(Nc1ccn(CCCN(CCCn2ccc(NC(=O)OCc3ccccc3)nc2=O)CCc2cc3ccccc3[nH]2)c(=O)n1)OCc1ccccc1	-0.1	-22	x	-17	-0.1%	-2.4
CCn1cnc2c1c(=O)n(CC(=O)Nc1ccc(C(N)=O)cc1)c(=O)n2Cc1ccccc1	0.3	2	-1	x	-0.9%	-0.4
COc1cc(C(=O)N2CCC(NC(=O)C(Cc3ccc(C)cc3)NC(C)=O)CC2)cc(OC)c1OC (configuration not stated)	0.9	0	-1	-18	u	2.2
CC1Cc2ccccc2N1Cc1cccc(S(=O)(=O)N(C)C)c1 (configuration not stated)	1.3	-21	2	-22	2.3%	-4.0
CCOc1ccc(-n2c(C)c(C(C)=O)c3cc(O)ccc32)cc1	3.0	-6	-7	x	0.5%	-1.0
Cc1ccc(C(=O)NCCCNC(=O)COc2ccccc2Cl)cn1	-0.2	-2	3	-1	-0.7%	-0.7
COC(=O)c1c(-c2ccccc2Cl)noc1/C=C/N(C)C	0.2	-3	-17	x	2.9%	-4.8
Cc1cc(C)cc(C(=O)NCC(=O)NCc2ccc(S(N)(=O)=O)cc2)c1	-0.5	6	-10	8	-1.2%	5.9
CC(=O)Nc1ccc2nc(NC(=O)COc3ccc([N+](=O)[O-])cc3)sc2c1	0.1	-2	-21	27	1.3%	6.3
Cc1ccc(OCc2cc(C(=O)N(C)C3CCCc4ccccc43)no2)cc1C (configuration not stated)	-0.3	38	-18	-22	2.6%	0.5
Cc1c(Br)c([N+](=O)[O-])nn1CCCC(=O)NC(C)c1ccccc1 (configuration not stated)	0.2	4	-11	x	-0.1%	0.4
O=C(c1cc(Cl)cc(Cl)c1)N1CCOCC1	-0.7	6	0	9	-1.8%[38.3 µM]	-1.1
Cc1ccc(-n2nc3c(=O)n(CC(=O)NCCCc4ccccc4)nc(C)c3c2C)cc1	0.6	6	-1	x	5.3%	4.7
Cc1ccc(CNC(=O)CN2C(=O)NC3(CC(C)CC(C)(C)C3)C2=O)cc1 (configuration not stated)	4.3	6	-3	6	1.1%	-0.8
O=C(N/N=C/c1ccc(OC(=O)c2ccco2)cc1)c1ccc[n+]([O-])c1	x	-3	-5	1	0.4%	-3.8
COc1ccc(NCc2nc3ccccc3n2C)cc1	-0.4	-2	-15	x	1.2%	-1.1
CCNc1nc(Oc2ccc(=O)n(-c3ccccc3)n2)nc(N2CCOCC2)n1	-1.1	6	2	-5	-0.6%	-0.5
Cc1ccc(CNC(=O)/C=C/c2cccs2)cc1	-1.1	7	-29	10	-2.3%	-2.9

Retrieved one by one from the entries so far:
smiles	TRPML1 agonist	Six1-Eya2 blk	D2 PAM	CtBP-E1A inh	PINK1 expr mod	D2 ag
Cc1ccc(CNC(=O)CN2C(=O)NC3(CC(C)CC(C)(C)C3)C2=O)cc1 (configuration not stated)	4.3	6	-3	6	1.1%	-0.8
Cc1ccc(CNC(=O)/C=C/c2cccs2)cc1	-1.1	7	-29	10	-2.3%	-2.9
Cc1ccc(-n2nc3c(=O)n(CC(=O)NCCCc4ccccc4)nc(C)c3c2C)cc1	0.6	6	-1	x	5.3%	4.7

(cont.)
smiles	TRPML1 agonist	Six1-Eya2 blk	D2 PAM	CtBP-E1A inh	PINK1 expr mod	D2 ag
C=CCn1c(=S)[nH]c2scc(-c3cccs3)c2c1=O	-0.4	-7	0	2	1.5%	-4.5
COc1ccc(NN=Nc2ccc([N+](=O)[O-])cc2)cc1	1.2	-3	-5	-5	1.4%	2.3
CC(=O)Nc1cccc(OCCCNC(=O)c2ccc(F)cc2)c1	5.9	0	-1	4	-0.9%	-1.6
Cc1cc(C(=O)OCC(=O)c2c(N)n(C)c(=O)n(C)c2=O)c(C)n1-c1ccccc1	1.3	-7	6	-1	14%	-2.0
CN1CCc2c(c3c(n2C)CCN(C)C3c2ccc(F)cc2)C1c1ccc(F)cc1 (configuration not stated)	0.5	5	-2	2	2.8%	0.1
CCc1ccc(C(=O)NNC(=O)c2ccc3c(=O)n4c(nc3c2)CCC4)cc1	-0.1	-18	-12	-14	4.6%	-0.3
Cc1ccc2c(c1)c(C)c(C)n2CC(O)Cn1nnc2ccccc21 (configuration not stated)	0.7	-17	-13	-22	-1.4%	-0.3
COc1ccc(C(=O)N(CC(=O)Nc2sc(C)c(C)c2C(N)=O)C2CCCC2)cc1	1.5	-2	-26	11	1.0%	-1.3
COC(=O)c1ccccc1NC(=O)Nc1ccc(C(=O)N2CCCC2)cc1	-0.7	0	-7	2	0.3%[38.3 µM]	-2.7
CN(C)c1ccc(-c2[nH][nH]c(=O)c2NC(=O)c2ccc3ccccc3n2)cc1	-0.4	-6	-11	-23	15%	7.8
COc1ccc(CCNc2cc(=O)[nH]c(N)n2)cc1	-0.1	-69*	-8	-80*	1.6%[38.3 µM]	-2.1
COCCCN1C(=O)C(CC(=O)NCC2CCCCC2)CC(C(=O)N2CCOCC2)=C1C (configuration not stated)	-0.7	6	6	5	-2.2%	-1.4
CCC(=O)Nc1nc(C)c(Oc2ccccc2)c(=O)[nH]1	-0.5	3	20	11	1.5%	-2.4
CC(=O)NC1=NN(C(C)=O)C(C)(c2ccccn2)S1 (configuration not stated)	-0.1	8	-7	4	2.4%	-3.8
CCc1cc2cc3c(cc2nc1SCC(=O)Nc1nnc(C)s1)OCCO3	-0.1	3	-5	1	12%[38.3 µM]	-2.2
COc1ccc(-c2nnc3sc(COc4ccc(C)cc4)nn23)cc1	2.2	-2	-4	-1	8.3%	-0.4
Cc1cccc(Nc2ccc(S(=O)(=O)N3CCOCC3)cc2[N+](=O)[O-])c1	-0.2	u	-1	u	0.7%	1.5
CCN1C(=NCc2ccccc2)N[C@@H](c2ccccc2)[C@H](C(=O)OC)[C@H]1C	-0.2	3	-20	2	0.3%	-3.3
CCCCC[C@H](C)N1C[C@@H](COCc2ccccc2)Oc2cc(N3CCC[C@H]3COC)ccc2S1(=O)=O	0.9	-2	x	1	0.6%	x
Cc1cc(C(=O)CN2C(=O)NC3(CCCCC3)C2=O)c(C)n1Cc1ccc2c(c1)OCO2	0.1	-22	-6	-5	-5.4%	-1.1
CC(=O)c1ccc(Nc2ccc([N+](=O)[O-])c3nonc23)cc1	2.3	-9	-38	x	2.8%	-8.2
CCCc1cc(=O)n2[nH]c(-c3ccc(Br)cc3)cc2n1	-0.6	-10	-40	7	29%	-3.0
Cc1ccc(C(=O)NCCSCc2ccccc2)cc1[N+](=O)[O-]	1.6	6	-11	6	0.5%	0.2
CN(C(=O)C(C)(C)C)C1c2c(ccc3ccccc23)OCC1CO (configuration not stated)	-1.4	11	-7	8	29%	3.7
CCOC(=O)c1c(NC(=O)COC(=O)Cn2c(C(F)(F)F)nc3ccccc32)sc(C)c1C	-0.4	-1	-3	-1	-1.5%	-3.4
COC(=O)Cc1nnc(SCC(=O)Nc2ccccc2)c2ccccc12	-0.4	-4	-7	x	1.7%	0.0
O=S(=O)(Nc1cccnc1)c1ccccc1	1.0&-0.4	11	-1	9	-1.2%&-0.9%	-1.7
